NPYLR7 agonist – agonists of mosquito NPYLR7 receptor, primary screen, cell-based, Aedes aegypti, calcium fluorescence, mosquito biting behavior; AID 1259423, 2018; HEK293T NPYLR7/Galpha15, GCaMP6s calcium fluorescence; activation, % at 10 µM; hit rate 0.15% among 270,000; in the data active = activation above about 40%;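 note: 0% = vehicle and 100% = reference agonist at the receptor; some compounds past the cut are filed as inactive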
NPYLR7 agonist max-min – second read-out of NPYLR7 agonist, no call of its own (marks repeat the call); activation, %; measured here: Max-Min RFU normalised activation; some inactives read as strong as hits;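 span of the calcium signal over five minutes; 0% = vehicle and 100% = native peptide agonist; compound fluorescence can raise it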
Starred values were filed as active, the others as inactive; & = joins results of further samples. This is a subset, so the mix of outcomes need not match the whole.

SMILES	NPYLR7 agonist	NPYLR7 agonist max-min
Cc1cc(C(=O)N2CC[C@H](NS(=O)(=O)c3cn(C)cn3)C[C@H]2C(=O)N[C@H](Cc2ccccc2)C(N)=O)n(C)n1	-10	-14
CC(C)N(CC(=O)Nc1cc(C(C)(C)C)nn1-c1ccccc1Cl)C(=O)Nc1cccc(C(F)(F)F)c1	-1	5
CCc1nccn1CCC(=O)N1CC[C@@H](c2ccc3c(c2)OCO3)[C@H](O)C1	-4	-5
Clc1ccc(OCC2CCCNC2)c2ccccc12 (stereo not given)	10	3
Cc1onc(-c2c(Cl)cccc2Cl)c1C(=O)Nc1ccc(CNC(=O)NC(C)C)cc1	-3	-9
COC(=O)c1sccc1S(=O)(=O)N1CCCC(C(=O)c2ccccc2OC)C1 (stereo not given)	8	1
O=C(NN=Cc1cccc(Oc2ccccc2)c1)c1ccccn1	-7	-10
Cc1cnc(=O)[nH]c1SCc1cccc(C(F)(F)F)c1	10	8
CN(Cc1ccsc1)C(=O)CCC1(Cc2ccc(Cl)cc2)CCC(=O)N1 (stereo not given)	3	-3
CCOc1ccc(OCCCOc2ccccc2C(C)=O)cc1	2	7
COCCN1CCN(C(=O)C2CCC(=O)N(CCc3cccc(F)c3)C2)CC1 (stereo not given)	1	-2
[N-]=[N+]=Nc1ccc(C(=O)CSC[C@H](NC(=O)CC[C@H](N)C(=O)O)C(=O)NCC(=O)O)cc1	5	-10
N#CC(C(=S)Nc1ccccc1)c1nnc2n1CCCCC2 (stereo not given)	0	-2
FC(F)(F)c1cc(-c2cnc3ccc(NCc4ccco4)nn23)cc(C(F)(F)F)c1	-7	-7
COc1ccc(C(=O)N2CCOCC3(CN(Cc4ccoc4)CCO3)C2)cc1 (stereo not given)	8	6
COc1ccccc1OCC(O)CO (stereo not given)	-6&-3	-14&-5
CN(Cc1ccc(O)cc1)C(=O)c1cc(-c2ccc(Cl)s2)on1	-7	241
CCc1ocnc1C(=O)N1CCOC(CCCC(C)C)C1 (stereo not given)	3	-2
Cc1ccc(CN2CCC(CO)(Cc3ccccc3)CC2)o1	-8	-12
c1ccc(-c2[nH]cnc2-c2ccc3nccn3c2)cc1	4	-7
Cc1ccc(-n2ncc3c(=O)n(NC(=O)COc4ccc(Cl)cc4)cnc32)cc1C	3	2
O=C(NCc1cccnc1-n1ccnc1)c1c[nH]c2ccccc12	9	5
COc1ccccc1Oc1cc(N2CCN(C)CC2)ncn1	19	22
Cc1ccc2nc(-c3ccc(Cl)cc3)c(NC3CCCCC3)n2c1	14	16
O=C(NCCCc1nc2ccccc2[nH]1)c1cnnn1-c1ccccc1	4	1
O=C(O)c1c[nH]c2ccc(S(=O)(=O)N3CCCCC3c3cccnc3)cc2c1=O (stereo not given)	-1	-4
O=S(=O)(Cc1ccn(-c2ccc(F)cc2)n1)c1ncn[nH]1	7	6
O=C(NC(c1ccc(Cl)cc1)c1cccnc1)C1CCN(CCOc2ccc(Cl)cc2Cl)CC1 (stereo not given)	6	-3
CCOC(=O)c1ccc(OC2CC3CCC(C2)N3C(=O)c2ccc(CSc3ccc(F)cc3)cc2)cc1 (stereo not given)	6	10
O=S(=O)(c1cc(Cl)ccc1Cl)N1CCN(c2nc(Cc3ccc(Cl)cc3)ns2)CC1	15	21
O=C(NC1CCN(Cc2ccccc2)CC1)c1cc(-c2ccccc2Cl)nc2cc(-c3ccccc3)nn12	-4	16
CC(=NNC(=S)NC1CCCCC1)c1cccs1	3	3
CC(Sc1nc(N)cc(N)c1C#N)c1ccccc1Cl (stereo not given)	3	4
C(=Nn1c(-c2ccccc2)csc1=NCCc1ccccc1)c1ccccn1	24	21
Cc1ccc(CNC2CC(C)(C)Cc3nc(C(C)(C)C)ncc32)o1 (stereo not given)	8	8
COc1ccc(CN2CCC(C(=O)NC(c3ccc(-c4ccccc4)cc3)c3cnccn3)CC2)cc1 (stereo not given)	4	3
N#Cc1ccc(C(=O)N(Cc2cccnc2)c2nc3cc4c(cc3s2)OCCO4)cc1	-5	1
CCc1nc(N(CCC(=O)NCc2cccc(C(F)(F)F)c2)Cc2ccccc2)c2ccccc2n1	6	3
CC1=C(C)C(NNC(=O)c2cc3ccccc3[nH]2)N(Cc2ccc(F)cc2)C1=O (stereo not given)	0	34
CCc1nc2ccc(C(=O)NCCN3CCOCC3)cn2c1N(C)Cc1ccc(OC)cc1	-4	-8
c1ccc(-c2ccc(-c3[nH]ncc3CNC3CCC3)cc2)cc1	0	-1
Cc1ccc(S(=O)(=O)NC(=O)C2(C)CCN2C(=O)Cc2ccc(-c3ccccc3)cc2)cc1 (stereo not given)	0	-2
CCOC(=O)CNC(=O)N(CCOC)CC(=O)N(CCc1c[nH]c2ccccc12)Cc1ccc(F)cc1	-5	0
CCCCC12CN3CC(C)(CN(C1)C3c1ccco1)C2=O (stereo not given)	-1	-2
COc1ccc(O)c(C=NNC(N)=S)c1	2	1
Cc1ccc(-c2nc3ccccn3c2NC(=O)C2CC2)cc1	-1	1
Cc1ccc(S(=O)(=O)NC2=NCN(C)CN2)cc1	-9	-12
Cc1cc(Br)c2[nH]c(O)c(N=NC(=O)COc3cccc(Br)c3)c2c1	10	2
CCC(=O)Nc1c(-c2cc(C)cc(C)c2)nc2ccccn12	-3	2
O=C(NCCCNc1ccc(C(F)(F)F)cn1)C1CC2CCCC(C1)C2=O (stereo not given)	12	10
CCn1c(SCC(=O)N2CCCCC2)nc2c([nH]c3ccccc32)c1=O	-5	-3
CC1CCN(c2cc(Oc3cccc(Cl)c3)ncn2)CC1	7	11
Cc1ccccc1CNC(=O)c1ccc(-c2cc(-c3cccc4ccccc34)[nH]n2)cc1	7	2
N#Cc1c(NC(=O)CN(Cc2ccco2)Cc2cccs2)sc2c1CCC2	7	8
CCOc1cccc(-c2cc(C(=O)N3CC(C)CC(C)C3)c3ccccc3n2)c1 (stereo not given)	-8	-11
C=CCOc1c(OC)ccc2c1CN(C)C(=O)CCN2C(C)=O	1	7
Cc1ccccc1CO[C@]1(C(=O)NCC2CCCO2)CC(OCc2ccc(C(F)(F)F)cc2)[C@@H]2OC(C)(C)O[C@@H]2C1 (stereo not given in full)	2	4
O=S(=O)(Nc1nc2c(ccc3ccccc32)s1)c1ccc(Cl)s1	-4	-6
CN(C)CCN1C(=O)C(=O)C(=C(O)c2ccc(F)cc2)C1c1ccc([N+](=O)[O-])cc1 (stereo not given)	3	0
CCCCCn1c(=O)c2c(nc3n2CC(C)CN3CCc2ccccc2)n(C)c1=O (stereo not given)	3	8

Some of the entries so far, field by field:
mol: C=CCOc1c(OC)ccc2c1CN(C)C(=O)CCN2C(C)=O
- NPYLR7 agonist: 1
- NPYLR7 agonist max-min: 7

mol: Cc1ccccc1CO[C@]1(C(=O)NCC2CCCO2)CC(OCc2ccc(C(F)(F)F)cc2)[C@@H]2OC(C)(C)O[C@@H]2C1 (stereo not given in full)
- NPYLR7 agonist: 2
- NPYLR7 agonist max-min: 4

mol: O=S(=O)(Nc1nc2c(ccc3ccccc32)s1)c1ccc(Cl)s1
- NPYLR7 agonist: -4
- NPYLR7 agonist max-min: -6

mol: CN(C)CCN1C(=O)C(=O)C(=C(O)c2ccc(F)cc2)C1c1ccc([N+](=O)[O-])cc1 (stereo not given)
- NPYLR7 agonist: 3
- NPYLR7 agonist max-min: 0

Continuation:
SMILES	NPYLR7 agonist	NPYLR7 agonist max-min
CC1(C)CC(N2CCN(c3cc(-n4cccn4)ncn3)CC2)CC(C)(C)N1	-19	-18
COc1ccccc1C1=NN(C(=O)CN2CCOCC2)C(c2cc(C)ccc2C)C1 (stereo not given)	1	8
Cc1cnc(C)c(-c2cc(O)c3c(c2)CN(C(=O)C2CCOCC2)CCO3)n1	12	4
Cc1ccccc1-n1ncc2c(C(C)C)nn(CC(=O)N3CCCc4ccccc43)c(=O)c21	7	3
CCOC(=O)C1(C)CCCCN1C(=O)c1ccccc1OC (stereo not given)	-4	-5
O=C(CN1CN(c2ccccc2)C2(CCN(C(=O)c3ccc(Br)cc3)CC2)C1=O)NCc1ccc2c(c1)OCO2	13	6
COCCN1C(=O)C(c2c(C)[nH]n(-c3cc(C)ccc3C)c2=O)=C(N(C)Cc2ccccc2)C1=O	17	28
NS(=O)(=O)c1cc([N+](=O)[O-])ccc1NC1CC1	26	19
CCC(C(=O)N1CCN(c2nccc(-c3ccc(N4CCOCC4)cc3)n2)CC1)c1ccccc1 (stereo not given)	3	2
Cc1c(C)c(C(=O)NCc2ccc(F)cc2)n(Cc2ccc(F)cc2F)c1C	26	29
CCc1cnc2c(c1SCC(=O)Nc1nc3ccc(C)cc3s1)c(=O)n(C)c(=O)n2C	5	9
CC(=O)N1CCN(c2cc(C(C)(C)C)nc(SCc3ccc(C(=O)NCC4CCCO4)cc3)n2)CC1 (stereo not given)	-6	-4
CCC(C)c1ccc(-n2c(-c3cc(OC)cc(OC)c3)nc3ccccc3c2=O)cc1 (stereo not given)	5	2
CSc1nnc(C)c(=O)n1COC(=O)c1ccc(S(=O)(=O)N(C)C)cc1	4	-1
CC(=O)NS(=O)(=O)c1ccc(NC(=O)c2cccn(OCc3ccccc3F)c2=O)cc1	4	2
CC(Oc1ccc(F)cc1)C(=O)Nc1cc(S(C)(=O)=O)ccc1F (stereo not given)	0	2
Cc1cc(=O)n2c(n1)SCC2CC(=O)N1CCCCC1 (stereo not given)	-2	-4
COc1cccc(CNC(=O)CCC2CCCN(C(=O)CN3CCCC3=O)C2)c1 (stereo not given)	22	12
COc1ccccc1-n1cc(C(=O)NCCc2cnc[nH]2)cn1	23	7
COc1ccc(Cl)cc1-n1cnc(CCNC(C)=O)c1	-6	-7
COc1ccc(Nc2nc3nonc3nc2Nc2ccc(OC)cc2)cc1	-3	-4
CCCN(Cc1cccnc1)C(=O)c1cc2ccccc2n1C	-1	0
CCC12CCC3=C(Cc4cc(OC)ccc43)C1=CCC2OC(C)=O (stereo not given)	6	5
Nc1c(C(=O)Nc2ccc(Br)cc2)c2ccccn2c1C(=O)c1ccc(F)cc1	1	-5
CCSc1oc(-c2ccco2)nc1S(=O)(=O)c1ccc(F)cc1	-2	-3
CCc1cccc(CC)c1-n1c(CNC(=O)c2ccco2)nnc1SCC(=O)N1CCc2ccccc21	-6	-5
CCc1ccc(CN(C)CC2CCCN(CCc3ccc(OC)cc3)C2)o1 (stereo not given)	5	5
CN(Cc1ccc2nsnc2c1)Cc1ccccc1C(=O)O	-4	-8
COc1ccc2c(c1)CCc1c(-c3ccc(C(=O)NCCCN(C)c4ccccc4)cc3)n[nH]c1-2	21	15
OCCOc1cccc(-c2nc[nH]c2-c2ccccc2)c1	-7	-12
O=C(CCN1C(=O)C2CC=CCC2C1=O)Nc1nc2c(s1)CCCC2 (stereo not given)	3	2
CCCc1cc(=O)[nH]c(-n2nc(C)cc2NC(=O)c2ccc(OC)c(OC)c2)n1	5	-4
COc1cccc(-c2nc3ccccn3c2NC(=O)c2ccc(F)cc2)c1	-13	-5
O=C(CSc1nc2ccccc2s1)Nc1cccc(Br)c1	1	0
CCCCCCCC(=O)N(C)c1ccc(-c2onc3c2CCc2ccccc2-3)cc1	4	4
COc1ccc(-c2cnc3ncnn3c2N2CCCN(S(=O)(=O)c3cccs3)CC2)cc1OC	-16	-14
CCN1C(=O)/C(=c2\sc3nc4ccccc4n3c2=O)c2ccccc21	-24	-25
CCn1c(=O)[nH]c2ccc3c(c21)C(=O)c1ccccc1C3=O	0	-1
CC1(C(=O)NS(=O)(=O)c2cccc(OC(F)F)c2)CCN1C(=O)c1ccco1 (stereo not given)	-6	-11
CC(C)=C1C2C=CC1C1C(=O)N(c3ccc(Br)cc3[N+](=O)[O-])C(=O)C21 (stereo not given)	3	2

4 of the compounds above, in markdown.
| Structure | NPYLR7 agonist | NPYLR7 agonist max-min |
| --- | --- | --- |
| CN(Cc1ccc2nsnc2c1)Cc1ccccc1C(=O)O | -4 | -8 |
| COc1ccc2c(c1)CCc1c(-c3ccc(C(=O)NCCCN(C)c4ccccc4)cc3)n[nH]c1-2 | 21 | 15 |
| OCCOc1cccc(-c2nc[nH]c2-c2ccccc2)c1 | -7 | -12 |
| O=C(CCN1C(=O)C2CC=CCC2C1=O)Nc1nc2c(s1)CCCC2 (stereo not given) | 3 | 2 |

Continued.
SMILES	NPYLR7 agonist	NPYLR7 agonist max-min
CCc1noc(C)c1C(=O)NCc1cccnc1N1CCCCCCC1	16	6
Cc1sc2nc(CN3CCCCC3)nc(Oc3cccnc3)c2c1C	-5	-7
COCCNc1nc(N)c([N+](=O)[O-])c(Nc2cccc(C)c2)n1	1	-1
CCc1ccc(-c2c(-c3ccccc3)ncn2C(C)c2cnn(C)c2)nc1 (stereo not given)	-3	-6
Nc1cc(-c2cccc(Cl)c2)nn1-c1ccc(C(=O)NC23CC4CC(CC(C4)C2)C3)cc1	-1	-6

Part of the list above, with values under each structure.
Each structure is followed by: NPYLR7 agonist	NPYLR7 agonist max-min
Cc1sc2nc(CN3CCCCC3)nc(Oc3cccnc3)c2c1C
    -5	-7
COCCNc1nc(N)c([N+](=O)[O-])c(Nc2cccc(C)c2)n1
    1	-1
CCc1ccc(-c2c(-c3ccccc3)ncn2C(C)c2cnn(C)c2)nc1 (stereo not given)
    -3	-6
Nc1cc(-c2cccc(Cl)c2)nn1-c1ccc(C(=O)NC23CC4CC(CC(C4)C2)C3)cc1
    -1	-6

Screening data (PubChem)
